Lassa entry inh = blocks Lassa virus binding to or entry into cells | Lassa virus pseudotype entry inhibition, cell reporter; control for the full effect not named in the record | Potency, µM (top dose mostly 37.9 µM), without a hit: top-dose activity change, negative = inhibition, hits mostly inhibitors | 300,000 tested, 1.2% active | AID 540256; active means well fitted inhibition curve with a large enough effect; inconclusive means small, poorly fitted or top-dose-only effect, or effect the other way; inactive means flat fitted curve, though single readings scatter; tested in HEK293 cells; also: % is scaled to controls: 0 for no effect and ±100 for the full control effect; nearly all actives have a fitted effect of over 50% in size; luciferase read-out
Cruzain noTriton = inhibitors of Trypanosoma cruzi cruzain without detergent; P25779; AID 1476; Potency, µM, inactives show max response, negative = inhibition, hits mostly inhibitors; 200,000 tested, 2.3% active; purified cruzain, Z-FR-AMC fluorescence, no detergent;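 also: plate controls were enzyme without inhibitor for no effect and buffer without enzyme for full effect; nearly all actives have a fitted effect of over 40% in size; top concentration of the series not given in the record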
Target sequence (P25779 123-467 limits assumed): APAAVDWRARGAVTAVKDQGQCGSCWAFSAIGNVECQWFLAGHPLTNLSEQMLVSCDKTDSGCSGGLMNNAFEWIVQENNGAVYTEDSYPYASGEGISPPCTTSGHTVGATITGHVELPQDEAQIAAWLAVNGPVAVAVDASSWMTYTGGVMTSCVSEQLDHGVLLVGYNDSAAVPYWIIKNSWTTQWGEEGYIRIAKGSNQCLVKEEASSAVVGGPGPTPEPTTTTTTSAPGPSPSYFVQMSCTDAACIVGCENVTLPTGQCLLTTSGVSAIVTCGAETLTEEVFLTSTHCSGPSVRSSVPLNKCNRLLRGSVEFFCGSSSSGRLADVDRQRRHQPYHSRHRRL
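Detergent-free condition (0.00005% Triton X-100) in acetate buffer pH 5.5 with DTT. 1.5 nM enzyme and compound were pre-mixed 15 min, then 2 uM Z-FR-AMC substrate added; reaction progress from fluorescence change between first and third reads (60 s).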
MARV entry inh = inhibitors of Marburg virus binding or cell entry; Marburg virus pseudotyped entry inhibition, cell reporter; control for the full effect not named in the record; about a third of the inactives were read at about 46 µM; Potency, µM (highest dose often 37.8 µM), for the others: at the highest dose activity change, negative = inhibition, usual class: inhibitors; 300,000 tested, 1.8% active; active = well fitted inhibition curve with a large enough effect; inconclusive = small, poorly fitted or top-dose-only effect, or effect the other way; inactive = flat fitted curve, though single readings scatter; tested in HEK293 cells; about a fifth of its hits are not listed in these tables; also: % is scaled to controls: 0 for no effect and ±100 for the full control effect; luciferase read-out
SARS PLP yeast = blocks SARS-CoV papain-like protease in a yeast assay; AID 485353; Potency, µM (titrated, usually from 32.9 µM), without a hit: at the top dose activity, positive = growth rescue; 330,000 tested, 0.19% active; S. cerevisiae expressing SARS-CoV PLpro, growth rescue; control for the full effect not named in the record; active means well fitted rising curve with a large enough effect; inconclusive means small, poorly fitted or top-dose-only effect; inactive means no such curve, though single readings can be large or run the other way; also: 0% is about no effect; nearly all actives have a fitted effect of over 55% in size; growth read by luminescence after 48 h
Cruzain inh Det = inhibitors of Trypanosoma cruzi cruzain with detergent. 200,000 tested, 0.43% active. Potency, µM, for inactives: max response, negative = inhibition, actives largely listed as inhibitors. purified cruzain, Z-FR-AMC fluorescence, 0.01% Triton;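 also: plate controls were neutral wells for no effect and buffer without enzyme for full effect; nearly all actives have a fitted effect of over 40% in size; top concentration of the series not given in the record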
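Steps: dispense cruzain (1.5 nM final) in acetate buffer pH 5.5 with DTT and 0.01% Triton X-100; pin-transfer compounds; incubate 15 min RT; add Z-FR-AMC (2 uM final); read fluorescence every 30 s, using the 60 s intensity change.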
RE007 growth inh = less growth of the S. pombe RE007 Vpr strain. 360,000 tested, 0.21% active. Potency, µM (titrated, usually from 92.2 µM), for inactives: top-dose activity change, negative = less growth. AID 651644. S. pombe RE007 Vpr strain, BacTiter-Glo ATP luminescence, 24 h; control for the full effect not named in the record; active = well fitted falling curve with a large enough effect; inconclusive = small, poorly fitted or top-dose-only effect; inactive = no such curve, though single readings can be large or run the other way;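 also: % is scaled to controls: 0 for no effect and ±100 for the full control effect; nearly all actives have a fitted effect of over 50% in size; the assay follows cell death caused by Vpr and the record does not say whether a fall means rescue or toxicity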
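Fission yeast strain RE007, carrying one chromosomally integrated HIV-1 vpr copy, was seeded at OD 0.01 in PMG+AL medium with 23 nL pinned compound. After 24 h at 30 °C and 99% humidity, viability was read by BacTiter-Glo luminescence.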
NS1 function inh = inhibitors of influenza NS1 protein function. S. cerevisiae slowed by influenza A NS1, growth recovery by OD600. Potency, µM (titrated, usually from 46.1 µM), for inactives: at the top dose activity, positive = more growth. 270,000 tested, 0.4% active. AID 2326; active means well fitted rising curve with a large enough effect; inconclusive means small, poorly fitted or top-dose-only effect; inactive means no such curve, though single readings can be large or run the other way; also: nearly all actives have a fitted effect of over 50% in size
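Recovery from NS1-induced slow growth read by OD600 in budding yeast switched to galactose assay medium (pH 6.0, -URA) at 1:100 dilution. Compound 23 nl per well; the matching strain lacking NS1 serves as control.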
2A StopGo = lowers the luciferase signal of an FMDV 2A StopGo reporter; Potency, µM (series often up to 57.9 µM), for the others: at the highest dose signal change, negative = less light; 410,000 tested, 1.2% active; AID 1159524; human cells with a luciferase reporter of 2A StopGo recoding; control for the full effect not named in the record; active = well fitted falling curve with a large enough effect; inconclusive = small, poorly fitted or top-dose-only effect; inactive = no such curve, though single readings can be large or run the other way; tested in HEK293T cells; also: % is scaled to controls: 0 for no effect and ±100 for the full control effect; nearly all actives have a fitted effect of over 45% in size; luciferase light after 4 h
Numbers without * were called inactive; ? = inconclusive; nt = not tested or not shown; & = joins results of further samples; [ ] = another dose, or the depositor's remark. Unless noted, calls follow the shape of the dose curve; as a rule, active = well fitted curve in the direction sought with a large enough effect; inconclusive = small, poorly fitted or top-dose-only effect, or another doubt; inactive = no such curve, though single readings can be large; an effect the other way counts as inactive or inconclusive. Potency is read from the fitted curve at half-maximal effect.

SMILES	Lassa entry inh	Cruzain noTriton	MARV entry inh	SARS PLP yeast	Cruzain inh Det	RE007 growth inh	NS1 function inh	2A StopGo
O=[N+]([O-])c1cc(/C=N/N2CCN(C3c4ccccc4-c4ccccc43)CC2)ccc1Cl	12%	13µM*	5%	2%	3.9%	5%	9%	-5%
Cc1ccc(-n2c(C)cc(C3N=C(N)Nc4nc5ccccc5n43)c2C)c(C)c1 (centres undefined)	?	-5%	?	1%	0.0%	18%	-18%	nt
Cc1ccc(C2C3=C(CC(C)(C)CC3=O)Nc3[nH]c(=S)[nH]c(=O)c32)cc1 (centres undefined)	-28%	-3%	?	3%	-0.4%	10%	8.9µM*	-10%
CCOC(=O)c1cnc(SCc2nc(N)nc(Nc3ccccc3OC)n2)nc1N	nt	12%	2%	5%	6.1%	nt	5%	nt
CCOC(=O)Cn1c(=O)oc2cc(S(=O)(=O)N3CCN(c4ccccc4F)CC3)ccc21	-22%[46.1 µM]	17%	-5%[46.1 µM]	nt	-0.3%	nt	nt	-8%
COc1ccccc1NC(=O)Cn1c([N+](=O)[O-])cnc1C	9%[46.1 µM]	nt	-6%[46.1 µM]	2%	nt	5%	1%	-11%
CCCOc1c(Br)cc(C2C3=C(CCCC3=O)N(C)C3=C2C(=O)CCC3)cc1OC	?	?	0%	-15%	-12%	-8%	5%	54%[activator]
COc1cccc(C(=O)N2CCN(C(=O)Cc3ccccc3)CC2)c1	18%[46.1 µM]	nt	-19%[46.1 µM]	2%	nt	5%	nt	-17%
CCc1ccc(N(CC)C(=O)c2ccc3c(Cl)c4c(nc3c2)CCC4)cc1	?	23%	?	-33%	-6.3%	-2%	-12%	?
O=C(Nc1ccccc1C(=O)NCCCN1CCOCC1)c1ccccc1	8%[46.1 µM]	nt	6%[46.1 µM]	0%	nt	22%	2%	-2%
CCOc1ccc(C(O)(CCC(C)C)C(CN2CCOCC2)c2ccccc2)cc1 (centres undefined)	2%[46.1 µM]	nt	?	-6%	nt	-3%	-11%	?
O=C(NC1CCN(S(=O)(=O)c2ccc(Cl)cc2)CC1)C1CCCCC1	nt	nt	22%[46.1 µM]	6%	nt	3%	10%	-4%
O=C(NCCCO)/C(=C\c1cn(-c2ccccc2)nc1-c1cccnc1)NC(=O)c1ccccc1	17%	?	-2%	?	-5.9%	18%	-11%	-20%
COc1ccc(C2SCCN2S(=O)(=O)c2ccc(F)cc2)cc1OC (centres undefined)	2%	-7%	9%	0%	5.7%	16%	-108%	?
CO/N=C/C(c1ccc(Cl)nc1)S(=O)(=O)c1ccccc1 (centres undefined)	nt	nt	nt	1%	nt	1%	11%	-10%
Oc1ccc2ccccc2c1/C=N/n1cnnc1	-1%	-18%	?	-32%	-11%	-1%[3.69 µM]	-12%	-12%
CCOc1ccc(NC(=O)CN2C(=O)C(c3ccccc3)=NC23CCCCCC3)cc1	19%[46.1 µM]	20%	?	nt	0.8%	nt	nt	8%
COc1ccc(Br)cc1CN(C)CC(=O)NCCc1ccc(S(N)(=O)=O)cc1	?	nt	?	2%	nt	-6%	8%	?
CCCCOc1cccc(C(=O)N(Cc2ccc(Cl)cc2)C2CCS(=O)(=O)C2)c1 (centres undefined)	-7%[46.1 µM]	?	?	nt	-8.3%	nt	nt	-19%
COc1ccc(NC2=NCC(Cc3ccc(Br)cc3)S2)cc1 (centres undefined)	?	10%	?	-26%	-1.4%	5%	-16%	?
Cc1cccc(NC(=O)c2cc(S(=O)(=O)N3CCc4ccccc43)cn2C)c1	nt	nt	nt	1%	nt	7%	-4%	-16%
CN(C)/C=C1/Oc2c(ccc3ccccc23)C1=O	-14%	nt	4%[46.1 µM]	2%	nt	13%	nt	15%
COc1ccc(OC)c(-n2c(C)nc3cc(C(=O)O)ccc32)c1	10%	-6%	-15%	7%	5.8%	1%	14µM*	-13%
NC(=O)CSc1nnc(-c2ccc(O)cc2)n1Cc1ccco1	3%	-3%	20%	10%	2.1%	-15%	6%	7%
Cc1ccc(S(=O)(=O)N2CCOCC2)cc1NC(=O)CSc1ncccn1	-6%	nt	-6%	-7%	nt	-2%	nt	-6%
Cc1c(CCC(C)C)c(=O)n2c([nH]c3ccccc32)c1C#N	-7%	0%	11%	-66%	-5.3%	6%	-150%	?
Cc1cc(C)n2nc(C(=O)Nc3ccc(S(=O)(=O)N(C)C)cc3)nc2n1	nt	nt	nt	-2%	nt	-2%	2%	-6%
CCC(=O)c1cc2c(C)cc(=O)oc2c(C)c1OC(=O)C(C)C	12%	5%	11%	-2%	0.0%	-15%	1%	-14%
CN(C)c1ccc(CNC(=O)CCc2ccc(S(=O)(=O)N3CCCCCC3)cc2)cc1	?	nt	?	-1%	nt	-9%	nt	-18%
CCCOc1ccc(C(=O)c2ccccc2C(=O)OC2CCOC2=O)cc1OCCC (centres undefined)	5%	nt	2%	-2%	nt	-2%	nt	13%
Cc1cc(=O)oc2c(C)c(OC(C)C(=O)NCCCn3ccnc3)ccc12 (centres undefined)	-1%[46.1 µM]	nt	-2%[46.1 µM]	-2%	nt	-2%	-18%	0%
CC/C(=C(/CC)c1ccc(O)cc1)c1ccc(O)cc1	nt	-6%&5%	nt	-19%	-11%&-5.2%	17%	3%	?
CCOC(=O)Cc1cc(C)[nH]c1C(=O)OCC	17%	nt	?	-1%	nt	1%	-3%	0%
Oc1ccc2ccc3cccc[n+]3c2c1	2%	nt	28%	nt	nt	-4%	nt	1%
COc1cc(OC)c(C2=NOC(C(=O)N3CCc4ccccc4C3)C2)cc1Cl (centres undefined)	-5%	?	-8%	-8%	-4.8%	-7%	-13%	17%
O=C(Nc1cccc([N+](=O)[O-])c1)C1COc2ccccc2O1 (centres undefined)	nt	nt	nt	-3%	nt	-9%	-10%	16%
COCCn1c(C)cc(C(=O)CSc2nc(C)cc(C)c2C#N)c1C	-6%	8%	?	-1%	-3.3%	5%	-31%	?
O=c1[nH]c(=S)n(Cc2ccc(F)cc2)c(O)c1/C=N/N1CCCCC1	0%	1%	14%	9%	-12%	-13%	12%	-29%
COC(=O)Cn1c(=O)c2c(n(Cc3ccccc3)c1=O)N/C(=C/c1ccc(OC)cc1)C2=O	-14%	nt	1%[46.1 µM]	-1%	nt	-5%	9%	-29%
COc1ccc(OC)c(S(=O)(=O)N2CCCC(C(=O)NC3CC3)C2)c1 (centres undefined)	4%	nt	-4%[46.1 µM]	nt	nt	5%	nt	-10%
COc1ccc(NC(=O)C=C(C)C)cc1Cl	-23%	0%	-2%	nt	0.3%	-26%	-53%	nt
COc1cccc(C2C3=C(CC(C)(C)CC3=O)Nc3cc(OC)c(OC)cc32)c1 (centres undefined)	8%	nt	-2%[46.1 µM]	-1%	nt	-3%	nt	-10%
COc1nc2ccccc2c(=O)n1-c1ccc(Cl)cc1	?	11%	10%	-5%	2.4%	-2%	-22%	-7%
Cc1c(C(=O)OC2CCCCC2)[nH]c2c1C(=O)CC(c1ccc(C(C)(C)C)cc1)C2 (centres undefined)	-4%[46.1 µM]	6%	-16%[46.1 µM]	nt	-1.3%	nt	nt	-14%
COc1ccc(S(=O)(=O)Nc2ccc(S(=O)(=O)Nc3nccs3)cc2)cc1	-5%	nt	1%[46.1 µM]	0%	nt	4%	-12%	30%
C[n+]1ccccc1/C=C1\Sc2ccccc2N1CCO	?	nt	-24%	-1%	nt	?	-6%	-13%
CCc1ccc(NC(=O)CC2C(=O)N(c3ccc(Cl)cc3)C(=O)N2Cc2cccs2)cc1 (centres undefined)	-10%[46.1 µM]	?	nt	nt	-9.2%	nt	nt	-1%
Cc1cc(Br)ccc1NC(=O)CCS(=O)(=O)c1cccc2nonc12	-1%&8%[46.1 µM]	-4%	-3%&-11%[46.1 µM]	1%	-1.6%	-3%	1%	9%&7%
CC(C)=CC(=O)Nc1nnc(-c2cccnc2)s1	?	10%	-4%[46.1 µM]	5%	1.5%	9%	-10%	22%
O=c1c2c3c(sc2nc2n1CCC2)CCCCC3	-4%	nt	?	-5%	nt	-33%	-46%	10%
Cc1ccccc1-n1c(/C=C/c2ccccc2F)nc2ccccc2c1=O	1%[46.1 µM]	2%	nt	nt	-2.4%	nt	nt	?
Cn1c(=O)c2sccc2n2c(CCCC(=O)NCc3ccc(F)cc3)nnc12	10%	nt	-2%[46.1 µM]	0%	nt	-2%	1%	2%
CCc1ccccc1N(CC(=O)Nc1cccnc1)S(=O)(=O)c1ccccc1	-1%	nt	-1%	4%	nt	-27%	-9%	-5%
CC(C)(C)SCCNS(=O)(=O)c1ccc(F)cc1	22%	0%	-9%	-2%	0.5%	-14%	8%	0%
O=C(Nn1c(O)c(C=C2N=c3ccccc3=N2)sc1=S)c1cccc(Cl)c1	-9%	?	-12%	-2%	-5.2%	-2%	3%	-19%
COc1ccccc1N1CCN(c2ccc(=O)n(CC(=O)NCc3ccc(OC(C)C)cc3)n2)CC1	?	?	nt	nt	-6.1%	nt	nt	?
CCCC(=O)Nc1ccc(C(=O)NCc2ccccc2Cl)cc1	7%	-11%	5%	4%	-5.8%	18%	4%	11%
Cc1c(CN2CCCC(C)C2)c(O)n(CCO)c(=O)c1C#N (centres undefined)	5%	nt	4%[46.1 µM]	1%	nt	-5%	8%	1%
CN1CCN(NS(=O)(=O)c2ccc(Cl)s2)CC1	11%	-7%	?	5%	0.1%	-13%	-1%	-13%
O=C(NCc1cccnc1)c1ccc(COc2ccccc2Br)cc1	?	nt	?	0%	nt	11%	nt	?

Other structures
SMILES	Lassa entry inh	Cruzain noTriton	MARV entry inh	SARS PLP yeast	Cruzain inh Det	RE007 growth inh	NS1 function inh	2A StopGo
O=C1CC(C(=O)Nc2ccc(O)c(C(=O)O)c2)C(c2ccccc2)O1 (centres undefined)	-3%	-10%	-3%	0%	-5.6%	12%	1%	-4%
N#CCSc1ccccc1NC(=O)COC(=O)CCNC(=O)c1ccc([N+](=O)[O-])cc1	-4%[46.1 µM]	nt	?	-2%	nt	2%	nt	4%
CSc1ccc(/C=C/c2nc3ccccc3n2S(=O)(=O)c2ccc(Br)cc2)cc1	?	4%	?	nt	-12%	nt	nt	-55%
Cc1ccc(NC(=O)c2cn(CCC#N)nc2-c2ccc3c(c2)OCCO3)c([N+](=O)[O-])c1	-24%	?	-1%	4%	-10%	-4%	16%	-22%
C=CCOC(=O)Cn1cnc2c(sc3nc(C)cc(C)c32)c1=O	nt	nt	7%[46.1 µM]	2%	nt	10%	6%	53%[activator]
